Source: PubChem (several laboratories)
CSC inhib = cancer stem cell inhibition | cancer stem cell-like cells viability, luminescence | inhibition, % at 7.5 µM | 300,000 tested, 1.1% active;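 active = mean at 75% or more and at least half the replicates too; inconclusive = mean and replicates disagree; tested in HMLE shEcad cells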;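 note: 0% = median of negative and 100% = median of positive control wells; the first replicate is given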
eIF4H FP inh = inhibitors of RNA binding by human eIF4H | AID 2012 | eIF4H fluorescence polarization binding assay | 290,000 tested, 0.94% active | inhibition, % at 35 µM;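 active = 50% or more with normal probe brightness, or confirmed in later tests; inconclusive = above 50% with abnormal brightness, or retests that disagree; inactive = below 50% or failed in later tests; about a fifth of its hits are not listed in these tables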;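 note: calls also rest on retests at 20 µM and on dose response follow-up; 0% = protein and probe with vehicle and 100% = probe without protein; strong numbers were not always called active; many hits fall short of the cut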
PABP FP inh = blocks human PABP binding to poly(A) RNA; P11940; fluorescence polarization; inhibition, % at 35 µM; 290,000 tested, 1% active; AID 2014;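 active = 50% or more with normal probe brightness, or confirmed in later tests; inconclusive = above 50% with abnormal brightness, or retests that disagree; inactive = below 50% or failed in later tests; about a fifth of its hits are not listed in these tables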;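 note: calls also rest on retests at 20 µM and on dose response follow-up; controls were probe without protein and protein plus probe with vehicle; some compounds called inactive have numbers as strong as hits; many hits fall short of the cut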
Target sequence (P11940 whole entry, looked up): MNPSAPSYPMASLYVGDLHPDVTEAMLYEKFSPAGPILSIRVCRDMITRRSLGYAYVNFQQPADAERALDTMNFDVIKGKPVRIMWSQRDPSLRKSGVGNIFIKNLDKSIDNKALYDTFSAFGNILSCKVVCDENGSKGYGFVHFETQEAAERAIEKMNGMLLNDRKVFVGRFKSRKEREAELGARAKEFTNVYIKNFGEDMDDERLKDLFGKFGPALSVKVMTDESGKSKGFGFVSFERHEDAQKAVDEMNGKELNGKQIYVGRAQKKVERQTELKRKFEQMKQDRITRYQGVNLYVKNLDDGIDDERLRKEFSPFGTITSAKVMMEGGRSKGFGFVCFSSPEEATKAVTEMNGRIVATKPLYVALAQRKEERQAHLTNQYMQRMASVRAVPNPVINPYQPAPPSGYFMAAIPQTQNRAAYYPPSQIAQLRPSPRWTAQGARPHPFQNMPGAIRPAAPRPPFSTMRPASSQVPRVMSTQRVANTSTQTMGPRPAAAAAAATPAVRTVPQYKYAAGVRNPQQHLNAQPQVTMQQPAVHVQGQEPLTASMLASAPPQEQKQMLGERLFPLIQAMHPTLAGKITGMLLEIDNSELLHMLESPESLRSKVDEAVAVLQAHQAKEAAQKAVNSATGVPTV
UUG fidelity = modulators of start codon recognition fidelity in yeast; S. cerevisiae UUG-firefly luciferase reporter, luminescence/redox ratio; activity score, % at 18.7 µM; 350,000 tested, 0.13% active;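 active = replicate mean at a twofold rise or more, about +100% in these data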;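 note: firefly luciferase made from a UUG start codon reports start codon fidelity; reporter light over untreated wells divided by growth signal over untreated wells; some hits fall short of that in this replicate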
Env fusion inh = blocks HIV Env-driven cell-cell fusion | HeLa-JRFL Env/CEM21 cell fusion, luciferase | inhibition, % at 12.3 µM | 360,000 tested, 1.1% active | AID 651610;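 active = mean replicate inhibition score of at least 50 and every replicate individually at or above 50; inconclusive = only one of the two criteria met; inactive = mean below 50 and not all replicates reaching 50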;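 note: 0% = plate neutral controls and 100% = maraviroc near 300 nM; one replicate is shown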
Rce1 inhib = inhibitors of yeast Ras-converting enzyme. Q03530. yeast membranes, quenched prenylated peptide cleavage fluorescence. calls only. 290,000 tested, 0.27% active. AID 2563;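 active = fall in fluorescence gain of 50% or more versus controls, with final raw signal at or below 3038400; inconclusive = same 50% fall but final raw signal above 3038400; inactive = fall in fluorescence gain under 50%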;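 note: plate controls were neutral control wells for no effect and wells lacking membranes for full effect; tested at 10 µM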
MT1-MMP act inh = MT1-MMP (human) activation inhibition | P50281 | HT1080 RFP-PRO-GFP cells, GFP/RFP ratio fluorescence, overnight; percent of plate control window, DMSO zero | GFP/RFP ratio change, % at 20 µM | 360,000 tested, 0.061% active | AID 651647;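 active = GFP/RFP ratio change of at least 30% with cell ATP level not reduced by more than half and red fluorescence within 50% of control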; note: strong numbers were not always called active
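Assay system: HT1080 RFP-PRO-GFP cells | Dosing: 20 µM single dose, 1% DMSO | Incubation: Cells overnight before dosing, compound overnight, 37 °C, 5% CO2 | Evaluation: GFP/RFP fluorescence ratio | Control set: DMSO-only wells and HT1080 RFP-L50D-GFP cell wells as references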
eIF4H FP inh retest = recorded beside eIF4H FP inh, whose call it bears; inhibition, %; compound at 20 µM; confirmation average;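 mean of two retest wells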
PABP FP inh retest = second read-out of PABP FP inh, no call of its own (marks repeat the call); inhibition, %; compound at 20 µM; confirmation repeats;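 mean of two retest wells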
MT1-MMP act inh RFP = further read-out of MT1-MMP act inh, marked with its call; RFP signal change, %; measured here: RFP expression control read;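 0 = vehicle wells; hits needed this value within 50% of zero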
Starred values were filed as active, the others as inactive; i = inactive; ? = inconclusive; . = not tested or not shown. An excerpt, so the mix of outcomes need not match the whole.

The opening 4 entries, ahead of the listing:
SMILES	CSC inhib	eIF4H FP inh	PABP FP inh	UUG fidelity	Env fusion inh	Rce1 inhib	MT1-MMP act inh	MT1-MMP act inh RFP	others
CC(=O)NCCc1c[nH]c2ccccc12	-7	-13	-1	-19	.	.	7	4
Cc1nc(SCc2c(Cl)cccc2Cl)nc(OC(=O)N(C)C)c1C	4	-15	12	-8	-1	i	-1	1
CCCCn1c(O)c(C(CC)=Nc2cccc(C(=O)O)c2)c(=O)[nH]c1=O	.	-9	12	6	.	i	-10	1
O=C(COC(=O)Cc1ccccc1)Nc1ccc(Cl)cn1	-1	16	1	-5	5	i	-1	5

The whole of this part, from the start:
SMILES	CSC inhib	eIF4H FP inh	PABP FP inh	UUG fidelity	Env fusion inh	Rce1 inhib	MT1-MMP act inh	MT1-MMP act inh RFP	others
CC(=O)NCCc1c[nH]c2ccccc12	-7	-13	-1	-19	.	.	7	4
Cc1nc(SCc2c(Cl)cccc2Cl)nc(OC(=O)N(C)C)c1C	4	-15	12	-8	-1	i	-1	1
CCCCn1c(O)c(C(CC)=Nc2cccc(C(=O)O)c2)c(=O)[nH]c1=O	.	-9	12	6	.	i	-10	1
O=C(COC(=O)Cc1ccccc1)Nc1ccc(Cl)cn1	-1	16	1	-5	5	i	-1	5
C=C(C)[C@@H]1C2C(=O)O[C@H]1[C@H]1OC(=O)[C@@]34OC3C[C@]2(O)[C@@]14C (some centres not stated)	-3	.	.	-16	-38	.	6	6
Cn1c(O)c(/C=C/C=Nc2ccccc2)c(=O)n(C)c1=O	-8	?	15	.	1	i	-34	6
C[C@]12CC[C@H]3[C@@H](CC[C@]4(O)C[C@@H](O)CC[C@]34C=O)[C@@]1(O)CC[C@@H]2C1=CC(=O)OC1	101*	.	.	-3	-39	.	-35	-27
Cn1c(O)c(C=NC2C(=O)C3(C)CCC2C3(C)C)c(=O)n(C)c1=O (configuration not stated)	-7	-9	4	-17	.	i	-1	4
CC[N+](CC)(CC)CC	7	-8	6	13	-19	i	0	0
Cc1ccc(-n2nc(C)cc2NC(=O)COc2cc(C)cc3oc(=O)c4c(c23)CCC4)cc1	-7	-6	5	6	-6	i	6	-10
C[N+]1(C)C2CCC1CC(OC(=O)c1ccco1)C2 (configuration not stated)	5	.	.	-13	-35	i	-3	5
C[C@]12CC[C@@H](O)CC1=CCC1C2CC[C@@]2(C)C1C[C@@H](F)[C@@H]2O (some centres not stated)	-10	.	.	-12	-9	.	-1	2
CCN1C[C@@]2(COC)C3[C@@H](OC)[C@H]4[C@@H]1[C@@]3(C1C[C@@]3(O)[C@H](OC(=O)c5ccccc5)C1[C@]4(OC(C)=O)[C@@H](O)[C@H]3OC)[C@@H](OC)C[C@H]2O (some centres not stated)	-15	.	.	-10	.	i	5	4
O=C(CCN1CCOCC1)Nc1ccc(Br)cc1C(=O)c1ccccc1	-6	-8	28	-20	8	i	5	2
N#CC(C#N)=Cc1ccc(N2CCCC2)cc1	17	68	-6	-16	-5	i	-28	-6	eIF4H FP inh retest=-8;PABP FP inh retest=8
CN(C)C(=O)Oc1cc(=O)n2c3c(cccc13)CCC2	-12	-6	0	5	4	i	.	.
N#CC12CC(=O)N1Cc1cnnn1-c1ccccc12 (configuration not stated)	.	.	.	-8	3	.	0	2
CCCCOC(=O)C1=C(N)OC2=C(C(=O)CC(C)(C)C2)[C@]12C(=O)N(C)c1ccccc12	-6	-6	3	-4	.	i	-2	0
Cc1ccc(OCC(=O)N2CCN(Cc3ccc([N+](=O)[O-])cc3)CC2)cc1	8	-2	2	-8	37	i	2	-21
COc1ccc(N=Cc2c(O)n(Cc3cccs3)c(=O)[nH]c2=O)cc1	16	-4	-13	.	-6	i	1	-1
CN(C)CC1CSCCC1(O)c1ccccc1 (configuration not stated)	.	-4	-1	1	3	.	3	2
CCc1cc(=O)[nH]c(SCCCF)n1	-2	4	16	.	26	.	2	3
COc1cccc(CN2CCNCC2)c1	4	-7	15	-1	-2	i	0	2
CN1C(=O)C(=Cc2ccc(OCC(=O)Nc3ccccc3)cc2)C(=O)N(C)C1=O	17	-1	12	-13	.	i	1	3
COc1ccc(N=C2SCCCN2C)cc1	-4	2	-1	-14	-44	i	-4	0
Carrying on.
SMILES	CSC inhib	eIF4H FP inh	PABP FP inh	UUG fidelity	Env fusion inh	Rce1 inhib	MT1-MMP act inh	MT1-MMP act inh RFP	others
CC(=O)Nc1ccc(CC(=O)N2CCN(Cc3ccccc3)CC2)cc1	-9	82*	60*	-12	6	i	-4	-5
CCOC(=O)c1cc2c(cn1)[C@@H](CCO)NC2	.	.	.	-8	-18	.	3	7
O=S(=O)(NC1CCCCC1)OCC(Cl)(Cl)Cl	-4	4	6	-25	-21	i	-2	1
CC(=NCc1ccco1)c1c(O)n(-c2ccc(C)cc2)c(=O)[nH]c1=O	-8	-9	0	.	0	i	3	4
CSc1nnc(C2CCNCC2)n1C	6	8	11	-18	2	i	-10	2
C=CCn1c(O)c(C(CC)=NCC2CCCO2)c(=O)[nH]c1=O (configuration not stated)	-1	2	-6	.	-14	i	1	-2
CN1C(=O)N(C)C(=O)C2(Cc3c(nc4ccccn4c3=O)N3CCc4ccccc4C32)C1=O (configuration not stated)	-13	1	0	-3	-104	i	1	4
CC1(C)CC(=O)C(C2(O)C(=O)NC(=O)NC2=O)=C(O)C1	-6	-18	2	-5	.	i	-2	3
c1cc2c(cc1CCNC1CCCCCC1)OCO2	-6	-9	-7	-16	.	i	2	8
O=C(OCc1ccccc1)N1CCC2CC1c1cc(N3Cc4ccccc4-n4nncc4C3)ccc12 (configuration not stated)	.	.	.	-21	-180	.	-1	-15
C[N+]1(C)CCN(c2ccccc2)CC1	-3	12	8	6	20	i	-3	3
COc1ccc(CNC(=O)C(NC(C)=O)C(C)C)cc1OC (configuration not stated)	-3	-5	-1	4	6	i	0	-4
Cc1ccc2c(c1)C1CN(C)CCC1N2C(=O)/C=C/c1ccc2c(c1)OCO2 (configuration not stated)	8	-2	-9	3	-5	i	1	2
CC(C)CN1CCN(Cc2ccc(C(F)(F)F)cc2)CC1CCO (configuration not stated)	.	10	-4	-8	-2	i	11	8
CCC(c1nnnn1Cc1ccccc1)N1CCC2(CC1)C(=O)NCN2c1ccccc1 (configuration not stated)	.	.	.	-3	-17	.	-1	2
C=CCc1cc(OC)c2c(c1)OCO2	2	.	.	-20	.	.	0	-1
COC(=O)C1=C(c2cccc(OC)c2OC)C[C@@H]2CC[C@H]1N2C(=O)N1CCOCC1	0	.	.	-7	2	i	3	4
O=C(c1ccc(CNS(=O)(=O)c2ccc(Br)cc2)cc1)N1CCC2(CC1)OCCO2	3	2	0	-13	.	i	-3	0
O=C(c1ccccc1)N1CCC2(CC1)OCCO2	-6	-8	5	-24	6	i	-1	5
CN1C(=O)N(C)C(=O)C2(Cc3cc(NC(=O)c4ccccc4)ccc3N3CCCC32)C1=O (configuration not stated)	-10	-2	2	-6	-11	i	-1	3
COc1ccccc1CC1/C(=N/O)C2CCN1CC2 (configuration not stated)	12	-3	12	-5	.	i	3	-1
COc1cc(C(O)CN)ccc1O (configuration not stated)	-9	.	.	-10	.	.	0	3
COC(=O)c1cn(C(=O)c2cccc3ccccc23)c2ccccc12	62	3	4	.	17	i	-5	-12
Cc1ccc2nc3c(cc2c1)CC1(C(=O)N(C)C(=O)N(C)C1=O)C1CCCCN31 (configuration not stated)	.	3	15	-12	-97	i	3	5
Cc1cccc(NP(=O)(Oc2ccccc2F)Oc2ccccc2F)c1C	31	-12	-11	-4	.	i	-10	-9

Brought forward from above: 6 entries, then new ones.
SMILES	CSC inhib	eIF4H FP inh	PABP FP inh	UUG fidelity	Env fusion inh	Rce1 inhib	MT1-MMP act inh	MT1-MMP act inh RFP	others
CN1C(=O)N(C)C(=O)C2(Cc3cc(NC(=O)c4ccccc4)ccc3N3CCCC32)C1=O (configuration not stated)	-10	-2	2	-6	-11	i	-1	3
COc1ccccc1CC1/C(=N/O)C2CCN1CC2 (configuration not stated)	12	-3	12	-5	.	i	3	-1
COc1cc(C(O)CN)ccc1O (configuration not stated)	-9	.	.	-10	.	.	0	3
COC(=O)c1cn(C(=O)c2cccc3ccccc23)c2ccccc12	62	3	4	.	17	i	-5	-12
Cc1ccc2nc3c(cc2c1)CC1(C(=O)N(C)C(=O)N(C)C1=O)C1CCCCN31 (configuration not stated)	.	3	15	-12	-97	i	3	5
Cc1cccc(NP(=O)(Oc2ccccc2F)Oc2ccccc2F)c1C	31	-12	-11	-4	.	i	-10	-9
COC(=O)C1=C(c2cccc(OCc3ccccc3)c2)C[C@@H]2CC[C@H]1N2C(=O)NCCCc1ccccc1	12	.	.	-24	9	.	-6	-17
COC(=O)C1C2c3ccccc3OC1(C)N=c1s/c(=C/c3cnn(C)c3)c(=O)n12 (configuration not stated)	-8	-1	-6	21	.	i	1	4
COc1cc2c3cc1Oc1cc(ccc1O)C[C@@H]1c4c(cc(OC)c(O)c4Oc4ccc(cc4)C[C@H]3N(C)CC2)CCN1C	7	-4	9	-5	10	i	2	2
CCN(CC)CCCN=Cc1c(O)n(Cc2ccc(F)cc2)c(=O)[nH]c1=O	-6	-6	-7	-16	.	i	3	3
CCOC(=O)C1CCN(C=C2C(=O)N(C)C(=S)N(C)C2=O)CC1	0	16	0	-14	-3	i	16	16
C#CC1(O)CCC2C3CCC4=CC(=O)CCC4=C3C=CC21C (configuration not stated)	.	.	.	-23	52	.	0	7
CN1C(=O)N(C)C(=O)C2(Cc3cc(N)ccc3N3CCN(c4ccccc4F)CC32)C1=O (configuration not stated)	0	7	24	.	-55	.	.	.
CCCOC(=O)Nc1ccc([As](=O)(O)O)cc1NC(=O)OCCC	-12	3	20	-14	-17	i	-1	1
Cc1nc2ccccc2c(=O)n1-c1ccc([N+](=O)[O-])cc1	13	5	5	-2	-31	i	0	1
c1coc(CN2Cc3ccccc3-n3nncc3C2)c1	.	.	.	-8	30	.	6	10
O=C(O)C(Cl)(Cl)Cl	-8	.	.	-11	8	i	9	7
Cn1c(O)c(C=NCCCC(=O)O)c(=O)n(C)c1=O	-7	6	9	-10	-26	i	1	7
COC(=O)C1=C(c2ccc(F)cc2F)C[C@@H]2CC[C@H]1N2C(=O)N1CCC(O)(c2ccc(Cl)cc2)CC1	7	.	.	-21	-10	.	-1	-5
OCC(Br)CBr (configuration not stated)	-14	.	.	-26	.	.	-1	3
COc1cccc(C(=O)C2CCCN(Cc3cccc4c3OCO4)C2)c1 (configuration not stated)	1	10	-1	.	9	i	-4	7
COC(=O)C1=C(c2ccc(OCc3ccccc3)cc2)C[C@@H]2CC[C@H]1N2C(=O)NCc1ccc(Cl)cc1	.	.	.	-15	-109	.	-4	-21
Cc1ccccc1NC1=NCCCS1	-15	4	2	.	.	i	1	0

A section of the results above, as a working copy:
SMILES	CSC inhib	eIF4H FP inh	PABP FP inh	UUG fidelity	Env fusion inh	Rce1 inhib	MT1-MMP act inh	MT1-MMP act inh RFP	others
COc1ccccc1CC1/C(=N/O)C2CCN1CC2 (configuration not stated)	12	-3	12	-5	.	i	3	-1
COc1cc(C(O)CN)ccc1O (configuration not stated)	-9	.	.	-10	.	.	0	3
COC(=O)c1cn(C(=O)c2cccc3ccccc23)c2ccccc12	62	3	4	.	17	i	-5	-12
